Screening results (PubChem)
NOMO-1 viab: NOMO-1 AML cell viability reduction, primary screen, STK33 inhibitor project, CellTiter-Glo luminescence. NOMO-1 AML viability, 72 h. inhibition, % (no concentration beside the values). 37,000 compounds, 7.5% hits. AID 2330, 2010;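 active = most replicates above 80%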;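 also: wells of about 30 µL received 25 nL stock; 0% = median of vehicle wells and 100% = reference inhibitor level; the first replicate is given; inactives centre near 10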
* marks the source's active call; other numbers are inactive results.

SMILES	NOMO-1 viab
COc1ccc(CN(C)C[C@@H]2Oc3ccc(NC(=O)Nc4ccc(C(F)(F)F)cc4)cc3C(=O)N([C@@H](C)CO)C[C@H]2C)cc1	117*
Cc1ccc(NC(=O)CSc2nc(C)c(C)c(=O)[nH]2)cc1	14
CC(=O)O[C@@H]1CC2C(C)(C)C(=O)C3OC3[C@]2(C)C2CC[C@@]3(C)[C@H](c4ccoc4)OC(=O)C4OC43[C@@]21C (some centres undefined)	21
C[C@H]1CN([C@@H](C)CO)C(=O)Cc2cc(NC(=O)C3CCCCC3)ccc2O[C@@H]1CN(C)C(=O)Nc1ccc(C(F)(F)F)cc1	0
COc1ccc(OC)c(C(C)NC(=O)Nc2ccc([N+](=O)[O-])cc2OC)c1 (centres undefined)	26
COc1ccc(CN(C)C[C@H]2Oc3ccc(NC(=O)CCCCCC(=O)Nc4ccccc4N)cc3CC(=O)N([C@@H](C)CO)C[C@H]2C)cc1	75
CCc1ccc(-n2c(SCC(=O)Nc3cc(Cl)ccc3C)nnc2-c2ccncc2)cc1	36
C[C@@H]1CN([C@H](C)CO)C(=O)c2cccc(NC(=O)Nc3ccccc3)c2O[C@H]1CN(C)Cc1ccccc1	75
Cc1c(NC(=O)COc2ccc(Br)cc2)cccc1C(=O)O	12
C[C@@H]1CCCCO[C@H](CN(C)Cc2ccncc2)[C@@H](C)CN([C@H](C)CO)C(=O)c2cc(NS(=O)(=O)c3ccc(F)cc3)ccc2O1	11
CCCC(O)c1c(O)cccc1C1(O)CC(=O)C/C1=C\C(O)CC(=O)O (centres undefined)	121*
Cc1ccc(S(=O)(=O)Nc2ccc3c(c2)CC(=O)N([C@@H](C)CO)C[C@H](C)[C@@H](CN(C)S(=O)(=O)c2ccc(F)cc2)O3)cc1	-4
C[C@@H]1CN([C@@H](C)CO)C(=O)c2cc(NC(=O)Cn3cnnn3)ccc2O[C@@H]1CN(C)C(=O)Nc1ccccc1	3
COc1cccc(NC(=O)Cn2cnc3c2c(=O)n(C)c(=O)n3C)c1	2
C[C@H](CO)N1C[C@H](C)[C@H](CN(C)Cc2ccc(C(=O)Nc3ccccc3N)cc2)Oc2ccc(NC(=O)Nc3ccc(C(F)(F)F)cc3)cc2C1=O	46
Cc1noc(C)c1NC(=O)Nc1ccc2c(c1)CC(=O)N([C@@H](C)CO)C[C@H](C)[C@H](CN(C)C)O2	17
C[C@@H]1CN([C@H](C)CO)C(=O)c2cccc(NC(=O)c3nc4ccccc4s3)c2O[C@H]1CN(C)S(=O)(=O)c1ccc(F)cc1	51
Cc1cc(O)c2c(c1)C(=O)C13C(C2=O)C(=O)C2C(O)C1C1C(O)C3C(=O)C3C(=O)c4c(O)cc(C)cc4C(=O)C321 (centres undefined)	110*
COc1ccc(NC(=O)Nc2ccc3c(c2)C(=O)N([C@H](C)CO)C[C@H](C)[C@H](CN(C)C(=O)C2CCCCC2)OCCCC[C@@H](C)O3)cc1	20
Cc1cc(C(=O)Nc2cccc3c2O[C@@H](CN(C)Cc2ccc(C(F)(F)F)cc2)[C@@H](C)CN([C@H](C)CO)C3=O)n(C)n1	59

Individual results from the entries so far:
Under NOMO-1 viab, CC(=O)O[C@@H]1CC2C(C)(C)C(=O)C3OC3[C@]2(C)C2CC[C@@]3(C)[C@H](c4ccoc4)OC(=O)C4OC43[C@@]21C (some centres undefined) has the entry 21
Under NOMO-1 viab, C[C@H](CO)N1C[C@H](C)[C@H](CN(C)Cc2ccc(C(=O)Nc3ccccc3N)cc2)Oc2ccc(NC(=O)Nc3ccc(C(F)(F)F)cc3)cc2C1=O has the entry 46
Under NOMO-1 viab, CCc1ccc(-n2c(SCC(=O)Nc3cc(Cl)ccc3C)nnc2-c2ccncc2)cc1 has the entry 36
Under NOMO-1 viab, COc1ccc(NC(=O)Nc2ccc3c(c2)C(=O)N([C@H](C)CO)C[C@H](C)[C@H](CN(C)C(=O)C2CCCCC2)OCCCC[C@@H](C)O3)cc1 has the entry 20

(listing goes on)
SMILES	NOMO-1 viab
Cc1ccc(S(=O)(=O)Nc2ccc3c(c2)C(=O)N([C@@H](C)CO)C[C@H](C)[C@@H](CN(C)C(=O)Nc2ccc(C(F)(F)F)cc2)O3)cc1	35
CC(=O)Nc1ccccc1-c1nc2ccccc2nc1OCC(=O)c1ccc(Br)cc1	3
Cc1cc(C)c2oc(-c3ccc(NC(=O)COc4ccccc4[N+](=O)[O-])cc3)nc2c1	32
Cc1cc(C(=O)Nc2cccc3c2O[C@@H](CN(C)S(=O)(=O)c2cccs2)[C@H](C)CN([C@H](C)CO)C3=O)n(C)n1	-1
NC(=O)CSc1nnc(-c2cccnc2)n1-c1cccc(C(F)(F)F)c1	-23
C[C@H](CO)N1C[C@H](C)[C@H](CN(C)S(=O)(=O)c2ccc(F)cc2)Oc2c(NC(=O)CCCCCC(=O)Nc3ccccc3N)cccc2C1=O	95*
Cc1cc(C(=O)Nc2cccc3c2O[C@@H](CN(C)Cc2ccc4c(c2)OCO4)[C@H](C)CN([C@H](C)CO)C3=O)n(C)n1	3
O=C1CC(SCCc2nc3ccccc3[nH]2)C(=O)N1c1ccc(F)cc1 (centres undefined)	22
COc1ccc(C(=O)COc2ccc(NC(=O)c3ccccc3[N+](=O)[O-])cc2)cc1	25
O=C(CSc1nnnn1-c1ccccc1)Nc1ccc2c(c1)OCCO2	-13
COc1cc(-c2c(C#N)c(SCC#N)nc(N)c2C(=O)OC(C)C)cc(OC)c1OC	2
C[C@@H]1CN([C@H](C)CO)C(=O)c2cc(NC(=O)Nc3ccccc3)ccc2O[C@H]1CN(C)C(=O)NC1CCCCC1	-8
Cc1noc(C)c1NC(=O)N(C)C[C@H]1Oc2ccc(NS(=O)(=O)c3c(C)noc3C)cc2CC(=O)N([C@@H](C)CO)C[C@H]1C	-32
Cc1cc(Br)c(NC(=O)CSc2nc3ccccc3[nH]2)cc1C	28
COc1ccc(NC(=O)Nc2ccc3c(c2)CC(=O)N([C@@H](C)CO)C[C@H](C)[C@@H](CN(C)S(=O)(=O)c2cccs2)O3)cc1	17
Cc1c(Br)c([N+](=O)[O-])nn1C(C)C(=O)Nc1ccc(CC#N)cc1 (centres undefined)	-11
NC(N)=NC(N)=Nc1ccccc1	-21
COc1ccc(OC(C)C(=O)Nc2ccccc2C#N)cc1 (centres undefined)	-31
CC(C)NC(=O)Nc1cccc2c1O[C@H](CN(C)C(=O)NC1CCCCC1)[C@@H](C)CN([C@@H](C)CO)C2=O	1
Cc1ccc(S(=O)(=O)Nc2ccc3c(c2)C(=O)N([C@H](C)CO)C[C@H](C)[C@H](CN(C)S(=O)(=O)c2ccccc2)O3)cc1	29
C[C@@H]1CN([C@H](C)CO)C(=O)c2cc(NS(=O)(=O)c3ccc(Cl)cc3)ccc2O[C@@H]1CN(C)S(=O)(=O)c1cn(C)cn1	-11
C[C@@H]1CN([C@@H](C)CO)C(=O)c2cccc(NC(=O)c3cnccn3)c2O[C@@H]1CN(C)Cc1ccc(C(F)(F)F)cc1	-2
C[C@@H]1CN([C@H](C)CO)C(=O)c2cc(NC(=O)Nc3ccc(F)cc3)ccc2O[C@H]1CN(C)C(=O)Nc1ccccc1	-6
CN(c1cccc(NC(=O)c2ccc(NS(=O)(=O)c3ccccc3)cc2)c1)S(C)(=O)=O	7
N#CC(=C1SCCCCS1)S(=O)(=O)c1ccc(Cl)cc1	29
C[C@@H]1CN([C@H](C)CO)C(=O)c2cccc(NS(C)(=O)=O)c2O[C@@H]1CN(C)S(=O)(=O)c1ccc(F)cc1	7
C[C@H]1CN([C@@H](C)CO)C(=O)Cc2cc(NS(=O)(=O)c3ccc(F)cc3)ccc2O[C@@H]1CN(C)Cc1ccc(Oc2ccccc2)cc1	96*
CNC[C@@H]1Oc2ccc(NS(=O)(=O)c3c(C)noc3C)cc2C(=O)N([C@H](C)CO)C[C@@H]1C	0
COc1cc(OC)nc(NC(=O)CSc2nc3ccccc3[nH]2)n1	-12
CC(C)(C)c1ccc(OCC(=O)Nc2cccc(C(=O)O)c2)cc1	-8
C[C@H]1CN([C@@H](C)CO)C(=O)Cc2cc(NC(=O)CCC(F)(F)F)ccc2O[C@H]1CN(C)Cc1ccccc1	-6
C[C@@H]1CN([C@H](C)CO)C(=O)c2cccc(NC(=O)CCCCCC(=O)Nc3ccccc3N)c2O[C@@H]1CN(C)S(=O)(=O)c1cn(C)cn1	9
O=C(O)CCNS(=O)(=O)c1cccc(F)c1	4
Cc1cc2nc(SCC(=O)NN)[nH]c2cc1C	35
Cc1noc(C)c1S(=O)(=O)Nc1cccc2c1O[C@@H](CN(C)Cc1ccc(Cl)c(Cl)c1)[C@@H](C)CN([C@@H](C)CO)C2=O	7
CCOC(=O)c1nc2c(o1)NC(N)=C(C#N)C2c1ccc(Cl)cc1 (centres undefined)	95*
C[C@@H]1CCCCO[C@@H](CN(C)S(=O)(=O)c2ccc(Cl)cc2)[C@@H](C)CN([C@H](C)CO)C(=O)c2cc(NC(=O)CCC(F)(F)F)ccc2O1	29
Cc1noc(C)c1S(=O)(=O)Nc1cccc2c1O[C@@H](CN(C)C(=O)Nc1ccccc1)[C@@H](C)CN([C@@H](C)CO)C2=O	28
C[C@@H]1CN([C@H](C)CO)C(=O)Cc2cc(NS(=O)(=O)c3ccc(F)cc3)ccc2O[C@@H]1CN(C)Cc1ccc2c(c1)OCO2	18
Cc1noc(C)c1S(=O)(=O)N(C)C[C@@H]1Oc2ccc(N(C)C)cc2CC(=O)N([C@H](C)CO)C[C@H]1C	26

Sorted by length of the SMILES (high to low): 3 of the compounds above
SMILES	NOMO-1 viab
CN(c1cccc(NC(=O)c2ccc(NS(=O)(=O)c3ccccc3)cc2)c1)S(C)(=O)=O	7
COc1cc(OC)nc(NC(=O)CSc2nc3ccccc3[nH]2)n1	-12
N#CC(=C1SCCCCS1)S(=O)(=O)c1ccc(Cl)cc1	29

Later entries.
SMILES	NOMO-1 viab
COc1ccc(OC)c(NC(=O)Cc2ccc(OC)c(OC)c2)c1	20
C[C@H]1CN([C@@H](C)CO)C(=O)c2cccc(NC(=O)c3nc4ccccc4s3)c2O[C@@H]1CN(C)C(=O)Nc1ccc(C(F)(F)F)cc1	33
Cc1cc(NC(=O)c2cnn3c(C(F)(F)F)cc(-c4cccs4)nc23)n(-c2ccccc2)n1	46
C[C@@H]1CN([C@H](C)CO)C(=O)Cc2cc(NS(C)(=O)=O)ccc2O[C@H]1CN(C)C(=O)Nc1cccc2ccccc12	23
O=C(O)CCC(=O)c1ccc2c(c1)OCCCO2	-4
O=C(c1ccc2c(c1)OCO2)N1CCCCC1	0
COc1c(O)c(C(=O)CCc2ccccc2)c(OC)c(OC)c1OC	6
CN1C(=O)c2cccc3cccc(c23)[S+]1c1ccccc1C(=O)O (centres undefined)	20
Cc1ccc(C)c(NC(=O)CSc2ncnc3sc4c(c23)CCC4)c1	39
CC(Oc1ccccc1)C(=O)NCCN1CCOCC1 (centres undefined)	-9
COc1cccc(Cc2nnc(-c3c(-c4ccccc4)noc3C)o2)c1	35
COc1ccc(S(=O)(=O)Nc2ccc3c(c2)C(=O)N([C@H](C)CO)C[C@H](C)[C@@H](CN(C)Cc2ccc(C(=O)O)cc2)O3)cc1	4
Cc1noc(C)c1NC(=O)Nc1ccc2c(c1)CC(=O)N([C@H](C)CO)C[C@@H](C)[C@@H](CN(C)Cc1ccc(Oc3ccccc3)cc1)O2	32
C[C@@H]1CN([C@@H](C)CO)C(=O)Cc2cc(NC(=O)Cc3ccccc3)ccc2O[C@@H]1CN(C)C(=O)Nc1ccc(C(F)(F)F)cc1	20
CC(C)[C@@H]1NC(=O)[C@@H](Cc2c[nH]c3ccccc23)n2c1nc1ccccc1c2=O	6
CNC[C@@H]1Oc2c(NS(=O)(=O)c3ccc(Cl)cc3)cccc2C(=O)N([C@@H](C)CO)C[C@@H]1C	-16
COc1cc2occ(-c3ccc4c(c3)OCO4)c(=O)c2c(OC)c1OC	19
C[C@@H]1CCCCO[C@@H](CN(C)S(C)(=O)=O)[C@@H](C)CN([C@H](C)CO)C(=O)c2cc(NC(=O)NC3CCCCC3)ccc2O1	22
CSc1sc(C(=O)O)c(I)c1S(=O)(=O)C(C)C	-8
COc1ccc(NC(=O)N(C)C[C@H]2Oc3c(NC(=O)C4CC4)cccc3C(=O)N([C@H](C)CO)C[C@@H]2C)cc1	6

Quoted at random: 3 entries already listed.
SMILES	NOMO-1 viab
CSc1sc(C(=O)O)c(I)c1S(=O)(=O)C(C)C	-8
Cc1noc(C)c1NC(=O)Nc1ccc2c(c1)CC(=O)N([C@H](C)CO)C[C@@H](C)[C@@H](CN(C)Cc1ccc(Oc3ccccc3)cc1)O2	32
Cc1cc(NC(=O)c2cnn3c(C(F)(F)F)cc(-c4cccs4)nc23)n(-c2ccccc2)n1	46

In a second layout: five of the compounds above.
SMILES | NOMO-1 viab
C[C@H]1CN([C@@H](C)CO)C(=O)c2cccc(NC(=O)c3nc4ccccc4s3)c2O[C@@H]1CN(C)C(=O)Nc1ccc(C(F)(F)F)cc1 | 33
Cc1cc(NC(=O)c2cnn3c(C(F)(F)F)cc(-c4cccs4)nc23)n(-c2ccccc2)n1 | 46
C[C@@H]1CN([C@H](C)CO)C(=O)Cc2cc(NS(C)(=O)=O)ccc2O[C@H]1CN(C)C(=O)Nc1cccc2ccccc12 | 23
O=C(O)CCC(=O)c1ccc2c(c1)OCCCO2 | -4
O=C(c1ccc2c(c1)OCO2)N1CCCCC1 | 0

Next section.
SMILES	NOMO-1 viab
Cc1ccc(S(=O)(=O)Nc2ccc3c(c2)C(=O)N([C@H](C)CO)C[C@H](C)[C@@H](CN(C)C(=O)NC2CCCCC2)OCCCC[C@@H](C)O3)cc1	2
COc1ccc(OCC(=O)Nc2sc(C)c(C)c2C(N)=O)cc1	27
O=C1c2ccccc2S(=O)c2ccccc2S(=O)(=O)N1Cc1ccccc1 (centres undefined)	117*
COc1ccc(CN(C)C[C@@H]2Oc3ccc(NC(=O)Nc4cccc5ccccc45)cc3CC(=O)N([C@H](C)CO)C[C@@H]2C)cc1	12
O=C(Nc1cccnc1)c1nc2ncccn2n1	30
C[C@H]1CN([C@@H](C)CO)C(=O)c2cc(NC(=O)CCCCCC(=O)Nc3ccccc3N)ccc2O[C@@H]1CN(C)C(=O)Nc1ccc(C(F)(F)F)cc1	-22
C[C@H](CO)N1C[C@H](C)[C@H](CN(C)S(=O)(=O)c2cccs2)Oc2ccc(NC(=O)CCN3CCOCC3)cc2CC1=O	19
Nc1cc(N)nc(SCC(=O)Nc2ccc(Br)cc2Cl)n1	-19

This is a subset; count on the stated rates, not on these rows.
